# Vaccinia pol inh: inhibitors of vaccinia virus processive DNA synthesis (E9 polymerase) | in vitro processive DNA synthesis, absorbance read-out; hits give low values; some inactives read as strong as hits | normalized absorbance, % (test concentration not listed) | 46,000 compounds, 0.94% hits;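 active = replicate mean up to 90% and picked by the depositor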;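 also: 100% = median of the test wells of a plate; 100 nL library stock went into each well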
# The depositor's hits bear a star. An excerpt; rates above refer to the full screens.
COc1cc2[nH]c(=S)nc(NCCC(C)C)c2cc1OC
  Vaccinia pol inh: 76
CC(C)(C)NCC(O)c1ccccc1Cl (stereo not drawn)
  Vaccinia pol inh: 99
N#Cc1ccc(C=Nc2ccc(S(N)(=O)=O)cc2)cc1
  Vaccinia pol inh: 96
O=S(=O)(NCC1CCCO1)c1ccc(Br)cc1 (stereo not drawn)
  Vaccinia pol inh: 100
Cn1c(=O)n(C)c2cc(CN)ccc21
  Vaccinia pol inh: 100
CCC(C)Sc1nc2ccccc2c(=O)[nH]1 (stereo not drawn)
  Vaccinia pol inh: 100
Cc1ccc2nc(C(F)(F)F)[nH]c2c1
  Vaccinia pol inh: 98
Cc1onc(-c2ccccc2Cl)c1C(=O)N1CCN(C)CC1
  Vaccinia pol inh: 95
CCc1ccc2c(c1)C(NC(C)=O)C(=O)N2C (stereo not drawn)
  Vaccinia pol inh: 99
Cc1nnc(SCC(=O)NC2CCCCC2)[nH]c1=O
  Vaccinia pol inh: 82

C=CCc1ccccc1Oc1cc(OC)nc(N)n1
  Vaccinia pol inh: 99
CCOC(=O)C1CCN(S(=O)(=O)c2cccs2)CC1
  Vaccinia pol inh: 70
CC1=NOC(=O)/C1=C/c1ccc(N2CCOCC2)cc1
  Vaccinia pol inh: 100
CCNC(=O)OCCC12CC3CC(CC(C3)C1)C2
  Vaccinia pol inh: 99
NC(=O)C1CCN(CC(O)COc2ccc3c(c2)OCO3)CC1 (stereo not drawn)
  Vaccinia pol inh: 97
Cc1cccc(NC(=S)N2CCOC2c2ccsc2)c1 (stereo not drawn)
  Vaccinia pol inh: 98
O=C1C2(c3ccccc3)CN(CCCO)CC1(c1ccccc1)CN(CCCO)C2
  Vaccinia pol inh: 96
CC(C)(C)OC(=O)N1CCC(CNC(=O)c2ccno2)CC1
  Vaccinia pol inh: 101
CC(C)=CC(=O)CC(O)(c1ccccc1)c1ccccc1
  Vaccinia pol inh: 100
Cc1ccc(C(=O)Cn2nnc(-c3ccccc3Cl)n2)cc1
  Vaccinia pol inh: 99

CCOC(=O)c1ccc2c(c1)c(C)c(C)n2Cc1ccccc1
  Vaccinia pol inh: 99
Cc1ccccc1Nc1ncc(-c2cccs2)s1
  Vaccinia pol inh: 101
O=C(Nc1ccc2c(c1)OCCO2)c1ccc2nccnc2c1
  Vaccinia pol inh: 107
COc1ccc(CC(=O)Nc2nccs2)cc1OC
  Vaccinia pol inh: 100
Cc1cc(S(=O)(=O)N2CCC(NC(=O)Cc3ccccc3)CC2)c(Cl)cc1Cl
  Vaccinia pol inh: 107
COc1ccccc1/C=C/C1C(C(=O)OCC(C)C)=C(C)N=C2SCCC(=O)N21 (stereo not drawn)
  Vaccinia pol inh: 101
O=C(CSc1ccccc1)Nc1nc2ccc(Br)cc2s1
  Vaccinia pol inh: 102
CN(Cc1ccccc1)S(=O)(=O)c1ccc2c(c1)CCN2C(=O)C1CC1
  Vaccinia pol inh: 95
COc1ccc(NC(=O)OCC23COCN2COC3)cc1
  Vaccinia pol inh: 100
CCOC(=O)c1[nH]c(C)c(C(=O)N2CCCC2)c1C
  Vaccinia pol inh: 100

Cc1cc2cc(CCNC(=O)CC3CCCCC3)c(=O)[nH]c2cc1C
  Vaccinia pol inh: 100
COC(=O)c1cc(=O)n2ccccc2c1C#N
  Vaccinia pol inh: 80
COc1ccc(C2OCC(CO)(CO)CO2)cc1
  Vaccinia pol inh: 106
COc1ccc(NC(=O)c2cnn(-c3ccc(C)c(C)c3)c2C2CCNCC2)cc1Cl
  Vaccinia pol inh: 92
CCN(c1ccccc1)S(=O)(=O)c1ccc2[nH]c3c(c2c1)CCCC3
  Vaccinia pol inh: 103
Cc1[nH]c2ccccc2c1CN1CCC(Cc2ccccc2)CC1
  Vaccinia pol inh: 100
Nc1ncnc2c1ncn2CCO
  Vaccinia pol inh: 102
COC(=O)c1ccc(NC(=S)N(C(C)C)C(C)C)cc1
  Vaccinia pol inh: 95
COC(=O)c1sc(N)nc1C
  Vaccinia pol inh: 101
C[N+](C)(CCOc1ccccc1)Cc1ccccc1 (tested in a mixture with another compound)
  Vaccinia pol inh: 93

Cc1cccc2cc(CN(Cc3ccccc3)C(=O)c3ccccc3)c(=O)[nH]c12
  Vaccinia pol inh: 96
CSc1sc(C(=O)Sc2ccccc2)cc1S(=O)(=O)C(C)C
  Vaccinia pol inh: 106
COC(=O)c1c(/N=C/c2c(O)n(Cc3ccccc3)c(=O)[nH]c2=O)sc2c1CCCC2
  Vaccinia pol inh: 100
N#CCC(=O)Nc1ccc2c(c1)OCO2
  Vaccinia pol inh: 102
CC1CCCN(C(=O)c2cc(-c3ccco3)nc3ccccc23)C1 (stereo not drawn)
  Vaccinia pol inh: 104
CCC1(c2ccccc2)NC(=S)N(c2ccccc2)N1 (stereo not drawn)
  Vaccinia pol inh: 94
Fc1ccc(-c2cn3c(-c4ccccc4)c(-c4ccccc4)nc3[nH]2)cc1
  Vaccinia pol inh: 98
CCc1ccc(NC(=O)NCCCN2CCN(c3ccccc3)CC2)cc1
  Vaccinia pol inh: 103
CCOC(=O)c1ccc(Nc2cc(C)nc(C)c2C(=O)OCC)cc1
  Vaccinia pol inh: 100
CCOc1ccc(NC(=O)C2CC=CCC2C(=O)OC(C)CC)cc1 (stereo not drawn)
  Vaccinia pol inh: 100

Cc1[nH]cnc1C(F)(F)F
  Vaccinia pol inh: 100
CC(C)(C)OC(=O)Nc1cn(-c2ccccc2)nc1-c1ccccc1
  Vaccinia pol inh: 71
C=CCSCC1Nc2cc(Cl)c(S(N)(=O)=O)cc2S(=O)(=O)N1 (stereo not drawn)
  Vaccinia pol inh: 100
CC(=O)Nc1ccc(Nc2c3c4c(cccc4[nH]c2=O)C(=O)c2ccccc2-3)cc1
  Vaccinia pol inh: 96
O=S(=O)(Cc1noc(-c2ccc(OC(F)(F)F)cc2)n1)Cc1ccco1
  Vaccinia pol inh: 98
CCC(C)(C)C(=O)NCc1ccc2c(c1)OCO2
  Vaccinia pol inh: 102
CNC(=O)CCc1cc2ccccc2[nH]1
  Vaccinia pol inh: 101
CCOC(=O)C1=C(SCC)c2ccc(-c3ccccc3)n2C1=O
  Vaccinia pol inh: 99
COc1ccc(C(=O)On2c(-c3ccccc3)cc3ccccc32)cc1
  Vaccinia pol inh: 100
CCc1nnc(N2CCN(c3ncnc4c3oc3ccccc34)CC2)s1
  Vaccinia pol inh: 95

CSc1cccc(NC(=O)c2ccc(CN3CCOCC3)cc2)c1
  Vaccinia pol inh: 100
Fc1ccc(-c2nc(-c3ccc(C(F)(F)F)cc3)no2)c(Cl)c1
  Vaccinia pol inh: 100
Cc1nc(/C(C#N)=N\O)cs1
  Vaccinia pol inh: 81
Cc1nc2cccc(C(=O)Oc3ccc(C(C)(C)C)cc3)c2o1
  Vaccinia pol inh: 100
C=C(C)CC1N(c2ccccc2)C(=O)C2C(C(=O)O)C3C=CC21O3 (stereo not drawn)
  Vaccinia pol inh: 103
Cn1c(CNc2ccccc2)cc(=O)n(C)c1=O
  Vaccinia pol inh: 102
C=CCN1C(=O)CSC1=Nc1ccc(O)cc1
  Vaccinia pol inh: 100
CC(C)c1ccc2c(c1)c1c3n2CCN(CC#N)C3CCC1 (stereo not drawn)
  Vaccinia pol inh: 99
Oc1ccc2c(c1)C1CCCC1(N1CCOCC1)O2 (stereo not drawn)
  Vaccinia pol inh: 100
COc1ccc(CCC(=O)Nc2cccc(C)n2)cc1
  Vaccinia pol inh: 99

CCCc1cc(=O)oc2cc(OC(C(=O)OCC)c3ccccc3)c(Cl)cc12 (stereo not drawn)
  Vaccinia pol inh: 100
O=C(c1cc(-c2ccco2)on1)N(C1CCCCC1)C1CCCCC1
  Vaccinia pol inh: 103
CCCn1c(CCNC(=O)c2cccc(C)c2)nc2ccccc21
  Vaccinia pol inh: 104
Oc1ccccc1C=Nc1ccccc1N1CCCCC1
  Vaccinia pol inh: 98
CC(=O)Nc1c(C(=O)O)oc2ccc(Br)cc12
  Vaccinia pol inh: 100
CC(C)C(NS(=O)(=O)c1ccccc1)C(=O)O (stereo not drawn)
  Vaccinia pol inh: 103
COc1cc2c(cc1OC)C(C)N(C(=O)c1cc3c(s1)-c1c(C)cccc1OC3)CC2 (stereo not drawn)
  Vaccinia pol inh: 102
FC(F)(F)c1cccc(CSc2ccc3nnc(Cl)n3n2)c1
  Vaccinia pol inh: 89
Cc1ccc(NCc2nc3ccccc3n2C)c(C)c1
  Vaccinia pol inh: 94
CN(C)C=NC(=S)c1ccc(-c2cccs2)s1
  Vaccinia pol inh: 78*

# The listing continues:
smiles,Vaccinia pol inh
O=S1(=O)CC(N2CCCC2)c2ccccc21 (stereo not drawn),88
NCCNC12CC3CC(CC(C3)C1)C2,100
O=C(CCc1ccccc1)Nc1ccc(-c2nc3ccccc3o2)cc1,100
CC(NCC(O)C(F)(F)F)c1ccccc1 (stereo not drawn),94
O=C(O)CCC(=O)Nc1nc(-c2ccccc2)cs1,101
COc1ccc(C(=O)Nc2n[nH]c(C(F)(F)F)n2)cc1,99
Cc1ccc(NC(=O)CCc2cn(Cc3ccc(Cl)cc3)c3ccccc23)c(C)c1,103
COc1ccccc1-n1c(SC(C)C)nc2ccccc2c1=O,101
COC(=O)C1=C(NC(=O)c2cc3ccccc3oc2=O)CCS1,101
CC(C)c1ccc(NC(=O)c2ccc(NS(=O)(=O)c3cccs3)cc2)cc1,96
COc1ccc(CCC(=O)Nc2ccc(-c3noc(CCc4ccccc4)n3)cc2)cc1,95
CC(C)C(NC(=O)C1CCCCC1)C(=O)N1CCN(c2ccccn2)CC1 (stereo not drawn),93
c1ccc(CN(Cc2ccccc2)c2c3c(nc4ncnn24)CCC3)cc1,93
O=C(O)CCCc1ccc2ccc3cccc4ccc1c2c34,80*
Oc1c(Cl)cc(Cl)c2cccnc12,99
FC(F)(F)c1cccc(-c2nc3ccccc3[nH]2)c1,101
Cc1csc(NC(=O)c2ccccc2C(=O)O)c1-c1nc2ccccc2s1,72*
Cc1ccc(N=Cc2ccc(Br)s2)c(C)c1,100
COc1ccc2c(c1)c1ncn(CCc3ccc(Cl)cc3)c(=O)c1n2C,98
CCCNC(=O)c1cc(Cl)cc(Cl)c1,84
N#Cc1cccn1Cc1ccccc1Cl,103
S=C(Nc1ccc(CN2CCOCC2)cc1)Nc1ccccc1Cl,117
Cc1ccc(C(=O)NC(C(=O)N(C)C)=C(Cl)Cl)cc1,97
O=C(COc1ccc2ccccc2c1)Nc1c2c(nn1-c1ccc(F)cc1)CS(=O)(=O)C2,92
Cc1sc(NC(=O)COc2cccc(F)c2)c(C#N)c1C,84
CC1(C)CC(=O)C(CS(=O)(=O)c2ccccc2)=C(O)C1,96
Cc1ccc(C)c(N(C)C(=O)c2cc3c(s2)-c2ccccc2SC3)c1,92
CCC1CN(C(=O)NCc2ccc(C)cc2)c2ccccc2S1 (stereo not drawn),102
CCOc1ccc(S(=O)(=O)N(CC(=O)NCc2ccccc2)c2ccccc2)cc1,100
CCOc1ccc(-n2c(-c3ccccc3)csc2=NC(C)=O)cc1,100
O=C(CCSc1ccccc1)c1cccs1,99
COC(CNC(=O)Cn1ncc2c(=O)oc3ccccc3c21)OC,103
O=C(O)c1nccnc1C(=O)NCc1ccccc1,105
CC(C)C1C(=O)OC2c3ccccc3C(=O)N21 (stereo not drawn),85
CC(C)(C#N)NC(=O)C1Cc2ccccc2CN1S(=O)(=O)c1ccc(F)cc1 (stereo not drawn),100
O=C(CC1SC(N2N=C(c3ccccc3)CC2c2ccccc2)=NC1=O)Nc1ccccc1 (stereo not drawn),100
Cc1cc(NC(=O)C(C)n2sc3ccccc3c2=O)ccc1Br (stereo not drawn),100
Cc1ccc(C)c(/C(O)=C2\C(=O)C(=O)N(CCCn3ccnc3)C2c2cccnc2)c1 (stereo not drawn),101
CCN(Cc1ccccc1)C(C)=O,99
Cc1nc2ccc(S(=O)(=O)NCC(=O)NCc3ccccc3)cc2s1,110
Cc1cc2cc(CNC(=O)Cc3cccc4ccccc34)ccc2n1C,101
O=S1(=O)CCC(N=Cc2cn(-c3ccccc3)nc2-c2ccccc2)C1 (stereo not drawn),100
Cc1ccc(S(=O)(=O)c2nc(-c3ccco3)oc2SCc2ccccc2F)cc1,86
Nc1nc2ccccc2n1CCN1CCCCC1,100
Cc1nc2c(sc3nc4c(c(-c5ccco5)c32)CCCC4)c(=O)o1,97
CC(C)N1CC2(c3ccccc3)CN(C(C)C)CC(c3ccccc3)(C1)C2O (stereo not drawn),101
CCOC(=O)c1ccccc1NC(=S)N(C)Cc1ccccc1,99
O=C(Nc1ccc(SC(F)(F)F)cc1)c1ccccn1,102
C/C(=N\O)c1sc(-c2ccc(Cl)cc2)nc1C,104
CC(=O)Nc1ccc(CN2CCN(C)CC2)cc1,100

# Other structures follow.
smiles,Vaccinia pol inh
Cc1cc(C)cc(N=Cc2ccc(C#N)cc2)c1,101
COc1ccc([S+]2CCCCC2)cc1,96
O=C(COC(=O)C1(c2ccc(F)cc2)CCCC1)N1CCOCC1,103
CCCCn1c(CNC(=O)c2cccs2)nc2ccccc21,100
CN1CCN(CCNC(=O)Cn2cccc2C(=O)c2ccccc2)CC1,98
CC(C)C(=O)N1C2=C(C(=O)c3ccccc32)C(c2ccc(Cl)cc2)c2c1n(C)c(=O)n(C)c2=O (stereo not drawn),100
CC[C@H]1[C@@H]2C=C[C@@H]3[C@H]4C/C=C\C(=O)NCCC[C@@H]5NC(=O)C(=C5O)C(=O)CC[C@@H]4C[C@@H]3[C@H]2C[C@H]1C,100
COc1ccc(C(=O)NC(CC(C)C)C(=O)O)cc1 (stereo not drawn),100
COc1ccc(OC)c(-n2c(=S)[nH]c3cc(C(=O)Nc4ccc(C)c(Cl)c4)ccc3c2=O)c1,110
CC(C)(C)C(=O)NCCc1c[nH]c2ccccc12,96
Cc1ccc(S(=O)(=O)c2cc3ccccc3oc2=O)cc1C,117
C=CCn1c(-c2ccc(OC)cc2)csc1=Nc1ccc(Br)cc1,100
N[C@@H]1CONC1=O,97
O=S1(=O)CC(Sc2ccc(Cl)cc2)c2ccccc21 (stereo not drawn),101
CCCN1Cc2cccc(C(N)=O)c2C1=O,100
COc1ccc2cc(CCC(C)=O)ccc2c1,101

# Screens from PubChem.
